# Assay outcomes deposited in PubChem by Johns Hopkins Ion Channel Center.
# KCNQ2 enhance – potentiators of rat KCNQ2 potassium channel. CHO-K1 KCNQ2, FluxOR thallium flux fluorescence; stronger effect = higher value. B-score at 10 µM. 0.54% of 310,000 active. Potassium voltage-gated channel subfamily KQT member 2 (Rattus norvegicus), O88943;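 active = fluorescence ratio B-score at least 3 SD of library B-scores, with initial fluorescence B-score within 3 SD, cut at about 5.3 in these data; same plate scores as AID 2156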;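 also: B-score of peak minus minimum over baseline fluorescence ratio after K+ and Tl+ stimulus; positive B-score means potentiation of KCNQ2 with more thallium influx and brighter signal; only the inactives scoring about 0 or higher are listed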
# Target sequence (O88943 whole entry, looked up): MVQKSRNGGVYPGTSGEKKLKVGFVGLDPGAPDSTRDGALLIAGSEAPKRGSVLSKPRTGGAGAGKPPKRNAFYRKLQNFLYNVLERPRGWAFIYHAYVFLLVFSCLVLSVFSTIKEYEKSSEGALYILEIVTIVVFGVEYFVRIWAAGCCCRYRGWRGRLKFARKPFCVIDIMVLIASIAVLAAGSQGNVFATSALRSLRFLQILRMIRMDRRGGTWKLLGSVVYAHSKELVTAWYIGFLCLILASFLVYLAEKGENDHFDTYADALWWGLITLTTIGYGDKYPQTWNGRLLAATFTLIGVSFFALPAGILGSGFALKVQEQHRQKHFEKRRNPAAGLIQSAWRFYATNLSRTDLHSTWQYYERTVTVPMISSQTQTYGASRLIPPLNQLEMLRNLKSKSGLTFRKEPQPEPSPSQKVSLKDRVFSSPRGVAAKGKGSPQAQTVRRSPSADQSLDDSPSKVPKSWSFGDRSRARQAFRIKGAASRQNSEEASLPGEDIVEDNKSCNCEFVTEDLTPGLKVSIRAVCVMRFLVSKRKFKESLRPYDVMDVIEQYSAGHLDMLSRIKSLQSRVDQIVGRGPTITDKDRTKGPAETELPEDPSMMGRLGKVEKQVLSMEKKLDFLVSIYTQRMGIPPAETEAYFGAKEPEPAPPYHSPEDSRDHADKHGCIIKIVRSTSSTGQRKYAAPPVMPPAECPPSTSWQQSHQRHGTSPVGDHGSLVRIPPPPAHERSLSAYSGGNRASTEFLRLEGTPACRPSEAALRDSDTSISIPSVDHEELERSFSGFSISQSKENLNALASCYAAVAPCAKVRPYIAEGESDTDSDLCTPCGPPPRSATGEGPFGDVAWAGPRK
# KCNQ2 enhance baseline – recorded beside KCNQ2 enhance, whose call it bears; B-score; compound at 10 µM; measured here: initial fluorescence intensity artifact check;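 brightness before thallium and not channel activity; 0 = typical well and far values either way flag optical interference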
# Numbers without * were called inactive. Not all compounds are listed, so the mix of outcomes need not match the whole.
# Order of values – KCNQ2 enhance	KCNQ2 enhance baseline
CC1(C)CC(=O)C2=C(C1)Oc1ncn(CCO)c(=N)c1C2c1ccccc1 (centres undefined)
 : 1.34	-4.43
COc1ccc(N2CCN(CC(=O)Nc3ccc(C)c(C)c3)CC2)cc1
 : 0.2	1.74
COC(=O)CSc1nc2cc(OC)ccc2n1C
 : 0.63	1.18
COc1ccc(OCCNC(=O)c2cccc(Oc3ccc(C(F)(F)F)cc3[N+](=O)[O-])c2)cc1
 : 1.02	-0.21
O=C(NCCSc1ccc(Cl)cc1)c1ccc(CN2CCOCC2)cc1
 : 1.86	-2.27
CCOC(=O)c1oc2ccc(S(=O)(=O)Nc3ccc4c(c3)n(C)c(=O)n4C)cc2c1C
 : 0.59	0.07
COC(=O)C1=C(O)/C(=C\c2cc(C)n(-c3ccccc3F)c2C)N=C1C
 : 0.01	2.17
CSCCC1NC(=O)N(C(C)C(=O)Nc2cc(Cl)cc(Cl)c2)C1=O (centres undefined)
 : 3.31	-1.2
CCCc1cc(=O)oc2c(C)c(O[C@@H]3O[C@H](CO)[C@@H](O)[C@H](O)[C@H]3O)ccc12
 : 2.02	0.8
CCOc1ccc(S(=O)(=O)N2CCc3ccccc3C2)cc1
 : 0.67	0.52
COC(=O)C1=CNC=C(C(=O)OC)C1c1cccc(OC)c1
 : 1.35	0.58
CCN(C(=O)c1cnc2scc(C)n2c1=O)c1ccccc1C
 : 0.98	-0.21
N#CCCCn1c(-c2ccccc2)noc1=O
 : 0.23	-0.54
CCOc1ccc(S(=O)(=O)Nc2c(C)n(C)n(-c3ccccc3)c2=O)cc1
 : 0.04	0.18
CC1CCN(C(c2cccs2)c2nnnn2Cc2ccccc2)CC1 (centres undefined)
 : 0.23	-1.24
Cc1ccc(C(=O)NCCNC(=O)Cc2ccccc2)cn1
 : 1.16	0.3
CCOC(=O)C1CCCN(c2c(NCCc3ccc(Cl)cc3)c(=O)c2=O)C1 (centres undefined)
 : 0.66	-1.88
Oc1ccc(Br)cc1C=Nc1ccc(Cl)cc1
 : 2.19	0.02
CCCCNC(=O)Nc1nc2ccccc2s1
 : 0.12	-0.01
CCc1cc(=O)oc2cc(OCC(=O)N3CCC(C(N)=O)CC3)ccc12
 : 1.02	0
COc1ccc(NC(=O)CSc2nc(O)cc(=O)[nH]2)c(OC)c1
 : 0.01	3
O=C(CC(=O)c1c(F)cccc1Cl)c1ccccc1O
 : 4.01	-2.1
O=C(c1cccc(N2CCCC2=O)c1)N1CCN(c2ccccc2)CC1
 : 1.03	0.68
Cc1ccc(C(=O)COC(=O)COc2ccccc2C)cc1
 : 1.93	-2.32
N#Cc1c(-c2ccc3c(c2)OCO3)csc1N
 : 3.53	0.09
COCCCNC(=O)CCc1c(C)nc2c(-c3ccc(F)cc3)c(C)nn2c1C
 : 1.27	1.21
Cc1ccc(C)c2c1[nH]c1ccc([N+](=O)[O-])cc12
 : 0.27	0.06
CCOc1ccc(CNc2ccc(CNc3ncn[nH]3)cc2)cc1
 : 1.5	1.08
CCOC(=O)C[C@H]1c2ccccc2S(=O)(=O)N1C1CC1
 : 0.7	0.41
O=C(COC(=O)c1cnccn1)NCCc1ccccc1
 : 1.1	0.11
COc1ccc(NC(=O)CNC(=O)Cc2ccccc2)cc1
 : 1.68	-0.94
COc1cc(NC(=O)Cc2ccccc2)cc(OC)c1
 : 1.29	-0.48
CCCc1nn2c(=O)cc(CSCC(=O)Nc3cccc(OC)c3)nc2s1
 : 0.58	-1.73
COCC(C)NC(C(=O)Nc1cccc(C(C)=O)c1)c1ccccc1 (centres undefined)
 : 0.75	-1.21
CC(=O)Nc1ccc(NC(=O)[C@@H](NC(=O)N2C[C@H]3C[C@@H](C2)c2cccc(=O)n2C3)C(C)C)cc1
 : 1.75	-0.62
COc1ccc(OC)c(C2NC(=S)NC3=C2N2CCC3CC2)c1 (centres undefined)
 : 0.94	0.66
CN(C)S(=O)(=O)c1cccc(NC(=O)COC(=O)c2ccc([N+](=O)[O-])o2)c1
 : 0.39	-0.14
CCc1onc(C)c1C(=O)Nc1ccc2c(c1)OCO2
 : 0.07	0.26
O=C(Cc1ccccc1)NCc1nc2ccccc2[nH]1
 : 1.15	-2.1
CNS(=O)(=O)c1cccc(C(=O)OCC(=O)N(CCC#N)c2ccccc2)c1
 : 2.53	-0.08
O=c1[nH]cnc2scc(-c3cccs3)c12
 : 0.14	0.87
Cc1ccc(S(=O)(=O)Nc2ccccc2C(=O)N2CCCCC2C)c(C)c1NS(C)(=O)=O (centres undefined)
 : 1.29	0.23
Cc1ccc(NC(=O)C2CC(=O)N(C(C)C)C2)cc1C (centres undefined)
 : 0.82	0.04
O=C(CSc1nnc(-c2ccc(Cl)cc2)n1-c1ccccc1)N/N=C/c1ccccc1C(=O)O
 : 1.38	-1.52
CC(=O)OCc1c(F)c(F)c(-n2nc(C)cc2C)c(F)c1F
 : 0.92	-1.62
O=C(Nc1cc(Cl)ccc1F)c1ccc(-n2cncn2)c([N+](=O)[O-])c1
 : 0.76	0.31
COCC(C)NC(=O)c1cc2c(ccc3ccccc32)oc1=O (centres undefined)
 : 0.13	1.51
CSCC(=O)N1CCCC(CO)(CCCc2ccccc2)C1 (centres undefined)
 : 0.05	-0.23
CCOc1ccccc1NS(=O)(=O)c1cccc2nsnc12
 : 0.36	-2.05
O=C(Nc1ccnc(-c2cccnc2)n1)c1ccccc1Cl
 : 1.29	0.43
O=C(NCc1ccccc1)Nc1cccn(Cc2ccccc2F)c1=O
 : 0.13	-0.44
Cc1cc(C)n2nc(SCc3nnc(-c4ccccc4Br)o3)nc2n1
 : 0.1	1.01
O=S(=O)(CC(CN1CCCCC1)N1CCCCC1)c1ccccc1 (centres undefined)
 : 1.35	0.05
COc1ccc(OC)c2[nH]c(=O)c(CCNC(=O)C(=O)c3c[nH]c4ccccc34)cc12
 : 0.61	-0.9
COc1cccc(CNC(=O)Cn2ccc3cc(S(=O)(=O)N4CCCC4)ccc32)c1
 : 1.32	-4.18
O=C(Nc1ccc(Cl)cc1)c1cc2c(cc1O)[nH]c1ccccc12
 : 0.68	-0.35
CCCN(Cc1cc2ccc(C)cc2[nH]c1=O)C(=O)c1cccnc1
 : 0.16	0.45
CN(CC(=O)Nc1ccccc1C(F)(F)F)C(=O)c1ccc(N2C(=O)CCC2=O)cc1
 : 0.06	1.59
c1ccc(Oc2cnc3ccccc3n2)cc1
 : 2.22	-0.79
Cc1ccc(N2C(=O)CC3(CCCC3)CC2=O)cc1
 : 0.73	1.51

# Entries of single compounds as entered above.
# O=C(Cc1ccccc1)NCc1nc2ccccc2[nH]1 as listed: KCNQ2 enhance = 1.15; KCNQ2 enhance baseline = -2.1
# COc1cc(NC(=O)Cc2ccccc2)cc(OC)c1 as listed: KCNQ2 enhance = 1.29; KCNQ2 enhance baseline = -0.48

# More results:
# Order of values – KCNQ2 enhance	KCNQ2 enhance baseline
CCOC(=O)C1=NN(C(=O)COc2ccccc2)C(O)(c2ccc(Br)cc2)C1 (centres undefined)
 : 0.58	-0.69
CCOc1ccc(N2C(=O)CC(n3ccc(C)n3)C2=O)cc1 (centres undefined)
 : 0.87	-1.44
O=C(Cn1cc(C(F)(F)F)cc(Cl)c1=O)Nc1cccc(Cl)c1
 : 2.37	1.19
Cc1ccc(NC(=O)C2CCN(S(=O)(=O)c3ccc4c(c3)CCCC(=O)N4)CC2)c(Br)c1
 : 0.08	1.87
O=C(Nc1cc(Cl)ccc1O)c1snnc1-c1ccccc1
 : 0.93	0.54
Cc1nn(CC(=O)N2CCc3ccccc3C2)c(C)c1[N+](=O)[O-]
 : 1.77	-0.34
O=C(c1ccc(NS(=O)(=O)c2ccccc2)cc1)N1CCCCCC1
 : 1.18	0.73
O=C(NC(C(=O)c1ccccc1)N1CCOCC1)c1ccccc1 (centres undefined)
 : 0.24	-0.85
CCOC(=O)c1cnc(-n2nc(C)cc2C)nc1Nc1cccc(C(=O)O)c1
 : 1.07	1.47
COc1ccc(-c2cc(C(=O)N3CCN(Cc4ccc5c(c4)OCO5)CC3)on2)cc1OC
 : 1.01	0.86
O=[N+]([O-])c1ccc(O)c(-c2cc(C(F)(F)F)nc(-c3ccccc3)n2)c1
 : 2.62	2.64
CCOC(=O)c1ccc(S(=O)(=O)Nc2cc(C(=O)O)ccc2Cl)cc1
 : 0.98	-0.78
S=C(c1cn(CCOc2cccc3ccccc23)c2ccccc12)N1CCCC1
 : 0.08	-0.45
O=[N+]([O-])c1ccc2nc(-c3ccccc3)[nH]c2c1
 : 0.3	-0.48
O=C1c2ccccc2C(=O)N1CCCP(=O)(O)CCc1ccccc1
 : 1.46	-1.05
COC(CNC(=O)C1CCN(S(=O)(=O)c2cccc3nsnc23)CC1)OC
 : 0.47	1.06
O=C(CCc1ccccc1)NCc1ccccn1
 : 2.41	1.88
N=C(c1ccc([N+](=O)[O-])cc1)N1CCCCCC1
 : 1.55	-0.92
Cc1c(C(=O)N2CCCCC2)c(S(=O)(=O)NCc2ccc(F)cc2)c(C)n1C
 : 0.22	-0.03
Nc1[nH][nH]c(=O)c1N=Nc1ccc2c(c1)OCO2
 : 0.52	-1.38
O=C(CC1CCCC1)Nc1ccc2c(c1)CCC2
 : 26.3*	0.37*
COc1ccc(NC(=O)Cc2csc(NC(=O)Nc3ccccc3OC)n2)c(OC)c1
 : 0.16	-0.07
O=c1c2ccccc2[nH]c(=S)n1CCCN1CCN(c2ccccc2F)CC1
 : 1.68	-0.27
CC(C)CNC(=O)COC(=O)CNC(=O)c1cc(Cl)cc([N+](=O)[O-])c1
 : 0.82	-1.6
COc1cc(NC(=O)CN2C(=O)NC(c3ccccc3)(c3ccccc3)C2=O)cc(OC)c1
 : 0.73	-1.01
Cn1c(=O)[nH]c(=O)c2[nH]c(NCCCN3CCOCC3)nc21
 : 0.99	1.53
COC(=O)Cn1nc(-c2ccccc2)n(-c2ccccc2)c1=S
 : 0.09	0.26
COc1cc(CNCCc2ccccc2F)ccc1OCC(=O)N1CCCCC1
 : 0.09	-0.47
CC1CCCN(C(=O)CSc2nnc3n(C4CCCC4)c(=O)c4ccccc4n23)C1 (centres undefined)
 : 0.89	0.48
COc1ccc(NC(=O)c2cc(OC)c(OC)c(OC)c2Br)cc1OC
 : 2.68	-0.3
CCOC(=O)C1CCN(CCCSc2ccc(Cl)cc2)CC1
 : 0.46	-0.53
COc1ccccc1NC(=S)NC(=O)/C=C/c1cccs1
 : 0.28	0.17
Cc1cnn(-c2cc(N/N=C/c3ccc(F)cc3)ncn2)c1
 : 0.11	-0.53
CCOCCCNC(=O)CN1C(=O)/C(=C/c2ccccc2)Sc2ccccc21
 : 0.09	-0.12
O=C(O)c1cc(N/N=C/C=C/c2ccccc2[N+](=O)[O-])ccc1Cl
 : 2.01	-0.09
CCCOc1cccc(-c2cc(C(=O)NN)c3ccccc3n2)c1
 : 0.73	0.66
Cc1cccc(C)c1NC(=O)CN(C)C(=O)C1CCN(c2ncnc3sc(C)c(C)c23)CC1
 : 0.04	-2.76
C/C(Cn1cnc([N+](=O)[O-])n1)=N\NC(=O)c1ccc(F)cc1
 : 0.01	-0.88
C/C(CC(=O)Nc1c(C)cc(C)cc1C)=N\NC(=O)OC(C)(C)C
 : 0.5	0.9
COc1ccc(C2=NN3C(=O)c4c(ccc(OC)c4OC)C3C2)cc1 (centres undefined)
 : 1.34	-1.05
COC(=O)c1ccccc1NCCO
 : 0.94	0.59
CCCCOc1ccc(Cl)cc1Nc1nc(NCCO)nc(N2CCCC2)n1
 : 1.5	-0.63
COc1ccc2nc(SCC(=O)Nc3ccc(S(=O)(=O)N4CCCC4)cc3)c(C#N)cc2c1
 : 0.76	-0.89
CN(CC(=O)N1CCN(c2ccc(F)cc2)CC1)S(=O)(=O)c1ccc(F)cc1
 : 1.59	-0.65
CC(=O)c1ccc(S(=O)(=O)N2CCC(NC(=O)c3ccccc3)CC2)cc1
 : 0.16	-0.2
Cc1ccc(CN2CC(C(=O)N(C)CC(=O)Nc3cccc(F)c3)CC2=O)cc1 (centres undefined)
 : 0.48	0.72
CCc1ccc(NC(=O)CSc2nnc(CNC(=O)c3cccs3)o2)cc1
 : 0.56	0.65
O=[N+]([O-])c1cccc(-c2noc(-c3cccs3)n2)c1
 : 0.52	-0.54
CCC(C)(C)NC(=O)C(C)OC(=O)c1nsc(Cl)c1Cl (centres undefined)
 : 1.44	-0.38
CCOc1ccc(N(CC(=O)NC2CCCCCC2)S(=O)(=O)c2ccccc2)cc1
 : 1.65	-0.36
CC(NC(=O)CCCc1ccccc1)c1ccncc1 (centres undefined)
 : 1.76	-0.48
COC(=O)[C@@]1(Cc2ccc(OC)cc2)[C@H]2c3cc(C(=O)N(C)C)[nH]c3C[C@H]2CN1C(=O)c1ccccc1
 : 0.76	-2.35
Cc1ccc(NC(=O)CSc2ncc(S(=O)(=O)c3ccccc3)c(=O)[nH]2)cc1C
 : 1.75	-0.21
CCSc1ccc([C@@H]2[C@@H]3C(=O)N(C)C(=O)[C@@H]3[C@]3(C(=O)OC)CCCCN23)cc1
 : 0.49	-0.44
Cc1nnc(SCC(=O)NNC(=O)c2ccccc2)n1-c1ccccc1
 : 0.05	-0.35
CCOc1ccccc1C1NC(=O)NC(C)=C1C(=O)OCc1ccccc1 (centres undefined)
 : 3	0.86
c1nc(N2CCC3(CC2)OCCO3)c2c3c(sc2n1)CCCC3
 : 1.45	0.27
CN(C)S(=O)(=O)c1cccc(C(=O)OCC(=O)Nc2sccc2C#N)c1
 : 1.72	0.17

# 2 compounds picked at random from the list so far, as already listed:
# Order of values – KCNQ2 enhance	KCNQ2 enhance baseline
Cc1ccc(C(=O)NCCNC(=O)Cc2ccccc2)cn1
 : 1.16	0.3
COc1cc(NC(=O)Cc2ccccc2)cc(OC)c1
 : 1.29	-0.48
